Kir21 inh: inhibitors of mouse Kir2.1 inward-rectifier potassium channel. HEK293-Kir2.1, FluxOR thallium flux fluorescence; active compounds read low. B-score at 10 µM. 310,000 compounds, 0.85% hits. P35561;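 active = fluorescence ratio B-score at or below minus 3 SD of library scores, with starting-brightness B-score within 2 SD, cut at about -4.2 in these data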;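 note: channel flux triggered by added potassium and thallium sulfate stimulus; B-score of peak minus minimum fluorescence over baseline after thallium stimulus; more negative B-score means stronger Kir2.1 block with less thallium influx; some compounds called inactive have numbers as strong as hits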
Target sequence (P35561 whole entry, looked up): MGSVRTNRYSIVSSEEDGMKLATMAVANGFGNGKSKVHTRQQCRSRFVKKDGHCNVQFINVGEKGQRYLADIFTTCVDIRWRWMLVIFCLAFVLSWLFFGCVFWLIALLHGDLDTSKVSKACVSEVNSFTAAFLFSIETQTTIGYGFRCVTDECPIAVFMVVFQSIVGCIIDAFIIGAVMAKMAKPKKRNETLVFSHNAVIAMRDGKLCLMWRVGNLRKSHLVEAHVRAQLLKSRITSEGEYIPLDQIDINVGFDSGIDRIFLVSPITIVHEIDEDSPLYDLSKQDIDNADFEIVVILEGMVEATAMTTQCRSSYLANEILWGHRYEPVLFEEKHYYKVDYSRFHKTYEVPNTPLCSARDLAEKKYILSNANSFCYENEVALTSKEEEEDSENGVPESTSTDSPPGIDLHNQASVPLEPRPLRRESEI
* marks the source's active call; other numbers are inactive results. An excerpt; most or all hits stand in other tables.

SMILES | Kir21 inh
Nc1c(Cl)ncnc1N/N=C/c1ccnc2ccccc12 | 0.68
CCC(C)NC(=S)Nc1ccccc1OC (stereo unspecified) | 1.2
CCn1c(SCC(=O)N/N=C/c2ccc(C)o2)nnc1-c1ccccc1 | -0.03
Cc1cc(NC(=O)CSc2nc(=O)cc(N)n2-c2ccc(F)cc2)no1 | -0.1
COCC(=O)NC1CCN(CC(=O)Nc2ccc(OC)cc2[N+](=O)[O-])CC1 | -0.77
CCOC(=O)C1(C)NC(c2cccs2)C2C(=O)N(c3ccc(OC)cc3)C(=O)C21 (stereo unspecified) | -0.17
COc1ccc(Cc2noc(CN(C)CCN3CCc4ccccc4C3)n2)cc1OC | -0.01
O=C(Nc1ccc(F)cc1)C1COc2ccccc2O1 (stereo unspecified) | 0.03
Cc1cc(C)n2nc(SCn3nnc4ccccc4c3=O)nc2n1 | 0.46
O=C(COC(=O)c1ccc(S(=O)(=O)NCc2ccco2)cc1)NCC1CCCCC1 | 1
CC1=C(C#N)CCC(=O)N1Cc1c(C)cc(C)cc1C | -1.4
Nc1cnc(Nc2ccc(Br)cc2)nc1N | 0.03
O=[N+]([O-])c1ccc2c(c1)oc1ccccc12 | 0.11
Cc1ccc(-c2csc(N3CCC(C(N)=O)(N4CCCCC4)CC3)n2)cc1 | 0.2
CCOc1ccc(C(=O)CCC(=O)NNC(=O)c2ccccc2O)cc1 | 0.63
Cc1cc(NC(=O)CS(=O)(=O)c2ccc(F)cc2)no1 | 1.8
O=C(NNC(=S)NCc1ccco1)C(c1ccccc1)c1ccccc1 | 0.25
COc1ccccc1/C=C/C=N/NC(=O)Cc1cccn1C | 0.18
CCCNC(=O)CN1C(=O)c2ccccc2Sc2ncccc21 | 0.51
CC(CCc1ccccc1)OS(N)(=O)=O (stereo unspecified) | -1.3
COc1ccc(Cl)cc1NS(=O)(=O)c1cccc(C(=O)NCC2CCCO2)c1 (stereo unspecified) | 2.3
COc1cc(C)ccc1OCc1cc(C(=O)NCc2ccncc2)no1 | -0.13
Cc1ccccc1OCCCC(=O)Nc1ccc2c(c1)OCO2 | 0.95
Cc1cc(C)cc(NC(=O)NNC(=O)c2cc3occc3[nH]2)c1 | 0.29
COc1ccc(OC)c(NC(=O)CSc2nnc(Cc3cccn3C)n2-c2ccc(F)cc2)c1 | 0.61

Reformatted: results already given.
> COc1ccc(Cc2noc(CN(C)CCN3CCc4ccccc4C3)n2)cc1OC
  Kir21 inh: -0.01

> O=C(Nc1ccc(F)cc1)C1COc2ccccc2O1 (stereo unspecified)
  Kir21 inh: 0.03

> Cc1cc(C)n2nc(SCn3nnc4ccccc4c3=O)nc2n1
  Kir21 inh: 0.46

> O=C(COC(=O)c1ccc(S(=O)(=O)NCc2ccco2)cc1)NCC1CCCCC1
  Kir21 inh: 1

(more compounds)
SMILES | Kir21 inh
Cc1cc(=O)oc2cc(NC(=O)c3c(Cl)cnn3C)ccc12 | 0.76
O=C1CCCC2=C1C(c1cccs1)n1nc(SCc3ccccc3)nc1N2 (stereo unspecified) | 0.33
O=C(O)CCCCCn1c(SCc2cc(=O)n3cc(Cl)ccc3n2)nc2ccsc2c1=O | 2.6
Cc1ccccc1SCCNC(=O)CCc1ccccc1 | -0.42
COc1ccc(C2N(C(=O)N3CCOCC3)CCN2S(=O)(=O)c2ccc(C)cc2)cc1 (stereo unspecified) | -1.4
CCOc1ccc(CN2CCN(Cc3c(C)nn(CC)c3C)CC2CCO)cc1 (stereo unspecified) | 1.6
COc1ccc([N+](=O)[O-])cc1NC(=O)COC(=O)Cc1cc(OC)c(OC)c(OC)c1 | 0.11
C=CCn1c(SCC(=O)Nc2c(C)n(C)n(-c3ccccc3)c2=O)nc2sc(C)c(C)c2c1=O | -0.08
O=C(CCCCCNC(=O)c1ccccc1Cl)N/N=C/c1ccco1 | -0.57
O=C1N=C2SCCN2/C1=C\c1ccc(Cl)cc1 | 1.1
COC(=O)C(Cc1ccccc1)NS(=O)(=O)c1ccccc1Br (stereo unspecified) | -0.13
Cc1cc(C)c(C(=O)Cn2cnc3cc([N+](=O)[O-])ccc3c2=O)cc1C | 0.19
O=C(CCN1CCCCCC1)Nc1cccc(F)c1 | 0.71
O=C(O)c1ccc(CSCc2ccccc2Cl)o1 | 0.48
Cc1cc([N+](=O)[O-])nn1CC(=O)Nc1cnc2ccccc2c1 | 1.4
N#Cc1c(-c2cccs2)cc(C2CC2)nc1SCC(N)=O | -1
COc1ccc(F)cc1S(=O)(=O)N1CCN(C(=O)c2ccco2)CC1 | -1.4
O=C(Nc1ccc2c(c1)CCC2)C1CCCN(c2ncccn2)C1 (stereo unspecified) | 2.3
OCC1(C2=NOC(O)(C(F)(F)F)C2)CCCCC1 (stereo unspecified) | 0.39
CC(C)(C)C(=O)N1CCC[C@@]1(CO)C(=O)O | 1.3
C=CCn1c(SCC(=O)O)nnc1-c1cccs1 | 1.1
Cc1oc(-c2cccc(Br)c2)[n+]([O-])c1C | -0.89
CCCCn1c(C(C)O)nc2ccccc21 (stereo unspecified) | 2.2
CCc1nc(SCC(=O)Nc2ccccc2Cl)n[nH]1 | -0.78
COc1ccc(NC(=S)NC(=O)C2CCC2)cc1 | -0.08
Next section:
SMILES | Kir21 inh
Cc1ccc(-c2noc(=O)n2CC(=O)Nc2ccc(S(=O)(=O)NC3CC3)cc2)cc1 | -0.17
COC(=O)COc1ccc(S(=O)(=O)NCc2ccco2)cc1Cl | -1.9
COC(=O)c1ccccc1NS(=O)(=O)c1ccc(F)cc1 | -2.4
COc1ccc2oc(C)c(NC(C)=O)c2c1 | 1.2
O=C(CCN1CCN(C/C=C/c2ccccc2)CC1)Nc1ccccc1Cl | 2
COC(=O)c1cc(-c2ccc(F)cc2)n(-c2ccccc2)n1 | 0.03
c1ccc(-n2c3ccccc3c3ccccc32)cc1 | 1.1
COc1ccccc1OCCn1nnc2ccccc21 | 0.7
CN1CCN(Cc2nc(Cc3cccc(F)c3)no2)CC1c1ccccc1 (stereo unspecified) | -0.41
FC(F)(F)c1ccc(N2CCN(c3ncnc4c3nnn4Cc3ccccc3)CC2)nc1 | 0
COC(=O)c1ccc(NC(=O)CCc2c(C)nc3ncnn3c2C)cc1 | -0.35
O=C(NCc1ccccn1)Nc1cc(Cl)cc(Cl)c1 | -2.8
O=C(O)c1cccc(S(=O)(=O)Nc2ccc3[nH]c(=O)[nH]c3c2)c1 | 0.01
COCc1cc(C)nc(OCC(=O)N/N=C/c2ccc(-c3cc([N+](=O)[O-])ccc3C)o2)c1C#N | 1.4
Cc1ccc(NC(=O)C2CC(=O)N(c3ccc4c(c3)OCCO4)C2)cc1S(=O)(=O)N(C)C (stereo unspecified) | 1.1
CCOC(=O)c1cc(-c2nnc(SCC(=O)Nc3ccc(F)cc3)o2)c(C)nc1C | 1.5
CS(=O)(=O)Nc1ccc(C(=O)NCCSC2CCCCC2)cc1 | 1.1
N#Cc1c(-c2ccco2)ccn(Cc2cccc(F)c2)c1=O | -1.2
COc1ccc(C(=O)Oc2cccc(/C=N/NC(N)=S)c2)cc1 | 0.01
CC(C)(C)NC(=O)/C(=C\c1ccc(Br)cc1)NC(=O)c1cccs1 | -0.07
O=C(CSc1ncccn1)N/N=C/c1cccc([N+](=O)[O-])c1 | -0.04
CC(C)(C)n1ncc2c(=O)n(CC(=O)NCc3ccccc3)cnc21 | -0.03
CCc1cccc(C)c1NC(=O)COC(=O)CNS(=O)(=O)/C=C/c1ccccc1 | -0.23
O=S(=O)(Nc1cc(F)ccc1F)c1cccc2nonc12 | -2
O=C1c2ccccc2S(=O)(=O)c2cc(C(=O)N3CCN(c4c(Cl)cncc4Cl)CC3)ccc21 | 1.3
(listing goes on)
SMILES | Kir21 inh
O=C(c1ccc(F)cc1)N1CCN(C2CCCCC2)CC1 | 1.3
COc1cc(S(=O)(=O)NCC2OCCc3ccccc32)ccc1-n1cnnn1 (stereo unspecified) | -0.2
Nc1c(C(=O)OCC2CCCO2)c2nc3ccccc3nc2n1C1CCCC1 (stereo unspecified) | 0.25
COCCn1nnnc1C(c1ccc2ncccc2c1)N1CCN(c2ccccc2F)CC1 (stereo unspecified) | -1.8
O=C(NCCOc1ccc(F)cc1)C1CCC(=O)N(CCCN2CCCC2=O)C1 (stereo unspecified) | 2.1
c1ccc(Cc2nc(-c3ccccn3)no2)cc1 | -1.6
O=C1c2ccccc2C(=O)C1c1ccc(Br)cc1 | 0.88
COc1ccc(NS(=O)(=O)c2cccc(C(=O)N3CCCC(C)C3)c2)cc1 (stereo unspecified) | 0.07
CC1=NNC(=O)C1CC(=O)N/N=C(/C)c1cccc([N+](=O)[O-])c1 (stereo unspecified) | 0.28
O=C1CCCN1CCCNS(=O)(=O)c1ccc(Br)cc1 | -1.7
CN1CCc2c(c3ccccc3n2Cc2ccccc2)C1 | -2.6
Cc1ccnc(N2C(=O)c3ccc([N+](=O)[O-])cc3C2=O)c1 | 0.17
CN1CCN(C(=O)C2=C[C@H](c3ccc(C(F)(F)F)cc3)C[C@H](OCCCCO)O2)CC1 | -0.09
Cc1ccc(S(=O)(=O)n2nc(C)cc2C)cc1 | 0.03
O=C(N/N=C/c1ccc(F)c(F)c1)c1cc2c(s1)-c1ccccc1CC2 | 0.45
Cc1nnc2sc(SCc3ccccc3)nn2c1=O | -0.83
CCOc1ccc(NC(=O)CCC(=O)NNC(=O)COc2ccccc2C)cc1 | -0.52
COc1ccc(C/C(C)=N/NC(=S)Nc2ccccc2)cc1 | -0.18
Cc1ccc(S(=O)(=O)N(C)C)cc1NC(=O)CCc1c[nH]c2ccccc12 | -0.01
O=C(O)c1[nH]nc2c1COc1ccccc1-2 | 0.99
Cc1ccc(C(=O)Cn2c(C(=O)/C=C/c3ccccc3)nc3ccccc32)cc1 | 1.5
CCCC(=O)NNC(=O)Nc1ccccc1 | -1.6
O=C(CN1C2CCCC1CC(NC(=O)c1ccco1)C2)Nc1ccccc1C(F)(F)F (stereo unspecified) | 0.07
Cc1cc(C)c2c(c1)N[C@H](c1cccs1)[C@@H]1CCO[C@H]21 | -1.2
COc1ccc(C(=O)Nc2nc(-c3ccccc3)c(C(C)=O)s2)c(OC)c1 | 0.25
Additional entries:
SMILES | Kir21 inh
Cc1cccc(CS(=O)(=O)Cc2ccc(C(=O)NCc3cccnc3)o2)c1 | -1.6
Cc1nnc2sc(SCC(=O)Nc3nccs3)nn2c1=O | -0.48
COc1ccc(Cl)cc1NC(=O)CNc1ccccc1F | -1
Cc1ccc(C(=O)NCc2cccs2)cc1S(=O)(=O)N1CCCCC1 | 0.92
O=C(NCc1ccccc1)c1ccc(=O)oc1 | 0.57
Cc1n[nH]c(C)c1S(=O)(=O)NCCc1ccc(Cl)cc1 | -0.4
Cc1nc2ccccc2c2c1C(=O)NC2=O | -2.7
Cc1c(NC(=O)c2ccc(N(C)S(=O)(=O)c3ccccc3)cc2)c(=O)n(-c2ccccc2)n1C | 1.7
COc1ccc(N2CCN(C(=O)CN3C(=O)COc4ccccc43)CC2)cc1 | 1.6
COc1cc(C(C)=O)ccc1COc1ccc(C(=O)O)cc1OC | 1.6
COC(=O)[C@@H](NC(=O)N1CCC(C)CC1)C(C)C | 1.7
Cc1ccc(-c2nnc(SCC(=O)OC(C)C)n2N)cc1 | 0.05
Cc1nnsc1-c1c(C(=O)O)c(C)nn1-c1ccc(OC(F)(F)F)cc1 | -0.69
O=C(NCCC(NS(=O)(=O)OCC(Cl)(Cl)Cl)c1ccccc1)C(F)(F)F (stereo unspecified) | -0.99
CC1=C(C(=O)OC(C)C)C(C)C(C(=O)OC(C)C)=C(C)N1 | -2
Cc1cccn2cc(-c3ccc4c(c3)NC(=O)CO4)nc12 | -0.27
CC(=O)Nc1ccc(S(=O)(=O)NCCC(=O)OCc2nnc(-c3ccccc3)o2)cc1 | 0.84
N#Cc1cc(Oc2ccccc2)c(-n2nnc3ccccc32)cc1C#N | -2.4
O=C(NC1CCN(Cc2ccccc2)CC1)C1CCN(S(=O)(=O)c2ccc(Cl)cc2)CC1 | 1.5
COc1cccc2cc(C(=O)NCc3ccccc3Cl)c(=O)oc12 | -1.1
CCc1cccc(NC(=O)CCS(=O)(=O)c2cc3c(cc2C)NC(=O)CO3)c1 | -2.3
O=C(N1CCOCC1)N1CCOCC1 | -0.61
O=[N+]([O-])c1ccc(-c2ccc(/C=N/c3c(-c4ccco4)nc4ccccn34)o2)c(Cl)c1 | 0.02
CCOc1ccccc1NC(=S)N(CCOC)C1CCN(C(C)=O)CC1 | 2.4
CCc1ccc(CNC(=O)CCc2cn(C)c3ccccc23)cc1 | -0.01

Exported with tabs: part of the list above
Structure	Kir21 inh
O=C(NC1CCN(Cc2ccccc2)CC1)C1CCN(S(=O)(=O)c2ccc(Cl)cc2)CC1	1.5
COc1ccc(N2CCN(C(=O)CN3C(=O)COc4ccccc43)CC2)cc1	1.6
CCOc1ccccc1NC(=S)N(CCOC)C1CCN(C(C)=O)CC1	2.4

Remaining list, next part
SMILES | Kir21 inh
CC1(c2ccc(OC(F)F)cc2)NC(=O)N(CC(=O)NC2CCCCC2)C1=O (stereo unspecified) | 0.23
CC(=O)Cc1nsc(NC(=O)c2ccc(-c3cccc(C(F)(F)F)c3)o2)n1 | -0.31
COc1ccc2c(c1)C(=O)[C@H](O)[C@@H](c1ccc(OC)c(Br)c1)O2 | 1.6
Cc1ccccc1N=Cc1c(O)n(-c2nccs2)c(=O)c2ccccc12 | 0.84
O=c1cc(-c2ccccc2)c2ccccc2[nH]1 | -0.01
CN(C)C(=O)c1ccc(Cl)cc1[N+](=O)[O-] | 0.93
CN(C(=O)c1coc(=O)c2ccccc12)c1ccc(F)cc1 | -1.4

A different layout for some results above:
Structure,Kir21 inh
CC1(c2ccc(OC(F)F)cc2)NC(=O)N(CC(=O)NC2CCCCC2)C1=O (stereo unspecified),0.23
CC(=O)Cc1nsc(NC(=O)c2ccc(-c3cccc(C(F)(F)F)c3)o2)n1,-0.31
COc1ccc2c(c1)C(=O)[C@H](O)[C@@H](c1ccc(OC)c(Br)c1)O2,1.6
Cc1ccccc1N=Cc1c(O)n(-c2nccs2)c(=O)c2ccccc12,0.84
O=c1cc(-c2ccccc2)c2ccccc2[nH]1,-0.01
